MT1-MMP act inh: blockers of MT1-MMP proenzyme processing, primary screen, HT1080 RFP-PRO-GFP cells, GFP/RFP fluorescence. Matrix metalloproteinase-14 (Homo sapiens), P50281. GFP/RFP ratio fluorescence, overnight; percent of plate control window, DMSO zero. GFP/RFP ratio change, % at 20 µM. 0.061% of 360,000 active. AID 651647, 2012;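 active = GFP/RFP ratio change of at least 30% with cell ATP level not reduced by more than half and red fluorescence within 50% of control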; also: strong numbers were not always called active
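Compound: 20 µM single dose, 1% DMSO / System: HT1080 RFP-PRO-GFP cells / Controls: DMSO and RFP-L50D-GFP cell wells / Read-out basis: GFP/RFP fluorescence ratio / Schedule: overnight compound exposure at 37 °C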
Rce1 inhib: yeast Rce1p protease inhibitors, primary screen, biochemical, fluorescence, cell-free homogeneous; yeast membranes, quenched prenylated peptide cleavage fluorescence; calls only; 0.27% of 290,000 active; AID 2563, 2010;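 active = fall in fluorescence gain of 50% or more versus controls, with final raw signal at or below 3038400; inconclusive = same 50% fall but final raw signal above 3038400; inactive = fall in fluorescence gain under 50%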;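 also: plate controls were neutral control wells for no effect and wells lacking membranes for full effect; tested at 10 µM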
Target sequence (Q03530 whole entry, looked up): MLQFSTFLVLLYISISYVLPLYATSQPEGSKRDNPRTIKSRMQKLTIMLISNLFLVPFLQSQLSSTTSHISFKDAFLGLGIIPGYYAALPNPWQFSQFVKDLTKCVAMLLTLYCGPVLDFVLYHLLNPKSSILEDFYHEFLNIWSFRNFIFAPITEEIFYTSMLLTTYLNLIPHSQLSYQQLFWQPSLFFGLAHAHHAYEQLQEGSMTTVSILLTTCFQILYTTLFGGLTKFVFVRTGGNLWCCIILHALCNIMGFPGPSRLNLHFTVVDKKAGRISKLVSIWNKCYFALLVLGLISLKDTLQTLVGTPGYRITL
UUG fidelity: modulators of yeast start codon fidelity, primary screen, whole organism, S. cerevisiae, single point, plate reader. AID 602363, 2012. S. cerevisiae UUG-firefly luciferase reporter, luminescence/redox ratio. activity score, % at 18.7 µM. 0.13% of 350,000 active;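 active = replicate mean at a twofold rise or more, about +100% in these data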;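 also: firefly luciferase made from a UUG start codon reports start codon fidelity; reporter light over untreated wells divided by growth signal over untreated wells; some hits fall short of that in this replicate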
CSC inhib: cancer stem cell viability inhibitors, primary screen, luminescence; cancer stem cell-like cells viability; inhibition, % at 7.5 µM; 1.1% of 300,000 active; AID 2717, 2010;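 active = mean at 75% or more and at least half the replicates too; inconclusive = mean and replicates disagree; tested in HMLE shEcad cells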;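 also: 0% = median of negative and 100% = median of positive control wells; the first replicate is given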
eIF4H FP inh: human eIF4H binding inhibitors, primary screen, translation initiation inhibitor project, biochemical, uHTS, fluorescence polarization; 0.94% of 290,000 active; Eukaryotic translation initiation factor 4H (Homo sapiens), Q15056; inhibition, % at 35 µM; AID 2012, 2009; eIF4H fluorescence polarization binding assay;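 active = 50% or more with normal probe brightness, or confirmed in later tests; inconclusive = above 50% with abnormal brightness, or retests that disagree; inactive = below 50% or failed in later tests; about a fifth of its hits are not listed in these tables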;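 also: calls also rest on retests at 20 µM and on dose response follow-up; 0% = protein and probe with vehicle and 100% = probe without protein; strong numbers were not always called active; many hits fall short of the cut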
PABP polyA inh: PABP poly(A) RNA binding inhibitors, primary screen, biochemical, fluorescence polarization, uHTS; Polyadenylate-binding protein 1 (Homo sapiens), P11940; inhibition, % at 35 µM; 1% of 290,000 active;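 active = 50% or more with normal probe brightness, or confirmed in later tests; inconclusive = above 50% with abnormal brightness, or retests that disagree; inactive = below 50% or failed in later tests; about a fifth of its hits are not listed in these tables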;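 also: calls also rest on retests at 20 µM and on dose response follow-up; controls were probe without protein and protein plus probe with vehicle; some compounds called inactive have numbers as strong as hits; many hits fall short of the cut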
Target sequence (P11940 whole entry, looked up): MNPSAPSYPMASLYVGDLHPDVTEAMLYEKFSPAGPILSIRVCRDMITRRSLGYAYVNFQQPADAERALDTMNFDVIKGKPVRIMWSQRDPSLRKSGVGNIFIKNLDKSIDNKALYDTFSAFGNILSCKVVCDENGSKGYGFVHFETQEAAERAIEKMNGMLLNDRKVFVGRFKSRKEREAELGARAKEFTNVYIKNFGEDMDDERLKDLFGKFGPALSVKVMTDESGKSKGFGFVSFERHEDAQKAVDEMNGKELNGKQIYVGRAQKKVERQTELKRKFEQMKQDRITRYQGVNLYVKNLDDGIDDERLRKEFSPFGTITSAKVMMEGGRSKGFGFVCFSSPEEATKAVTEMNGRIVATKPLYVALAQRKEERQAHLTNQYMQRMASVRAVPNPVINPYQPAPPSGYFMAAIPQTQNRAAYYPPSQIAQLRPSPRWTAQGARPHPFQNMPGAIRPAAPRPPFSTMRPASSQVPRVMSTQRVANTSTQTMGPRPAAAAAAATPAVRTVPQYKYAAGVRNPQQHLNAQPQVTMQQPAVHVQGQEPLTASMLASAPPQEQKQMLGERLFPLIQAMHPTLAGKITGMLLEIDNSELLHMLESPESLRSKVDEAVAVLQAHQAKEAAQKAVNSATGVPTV
Env fusion inh: inhibitors of HIV-1 Env-driven cell-cell fusion, primary screen, HeLa-JRFL effector, CEM21 target cells, luciferase; inhibition, % at 12.3 µM; 1.1% of 360,000 active; AID 651610, 2012;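 active = mean replicate inhibition score of at least 50 and every replicate individually at or above 50; inconclusive = only one of the two criteria met; inactive = mean below 50 and not all replicates reaching 50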;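 also: 0% = plate neutral controls and 100% = maraviroc near 300 nM; one replicate is shown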
eIF4H FP inh retest: second read-out of eIF4H FP inh, no call of its own (marks repeat the call); inhibition, %; compound at 20 µM; confirmation average;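 mean of two retest wells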
PABP polyA inh retest: further read-out of PABP polyA inh, marked with its call; inhibition, %; compound at 20 µM; confirmation repeats;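 mean of two retest wells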
MT1-MMP act inh RFP: recorded beside MT1-MMP act inh, whose call it bears; RFP signal change, %; measured here: RFP expression control read;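 0 = vehicle wells; hits needed this value within 50% of zero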
* = called active by the depositor; i = inactive; u = inconclusive; x = no result given; & = joins results of further samples. These rows are one share of the data; count on the stated rates, not on these rows.

SMILES | MT1-MMP act inh | MT1-MMP act inh RFP | Rce1 inhib | UUG fidelity | CSC inhib | eIF4H FP inh | PABP polyA inh | Env fusion inh | others
Cc1ccc(C(=O)NC(=S)Nc2ccc(-c3cc4ccccc4oc3=O)cc2)c(C)c1 | -5 | 4 | i | -23 | -13 | 1 | -8 | x
CC(C)n1nnnc1SCC(=O)NNC(=O)C1CCCCC1 | 1 | 2 | x | -14 | -9 | 0 | -7 | -1
COc1ccc(CCNC(=O)Cn2cnc3c(cnn3-c3ccccc3Cl)c2=O)cc1OC | 10 | 3 | i | 4 | 8 | -6 | 0 | -27
COC(=O)c1ccc(C(=O)OC)c(NC(=O)Cc2cccs2)c1 | -7 | -3 | x | 22 | x | x | x | -10
Nn1cnc2scc(-c3cccs3)c2c1=O | -1 | 0 | i | -16 | 4 | -5 | 14 | -12
CCN=C1SC(CC(=O)NCCc2ccc(OC)cc2)C(=O)N1CC (stereo not drawn) | 0 | 9 | i | -7 | -2 | -1 | -7 | -31
Cc1ccc(NS(=O)(=O)c2ccc(NC(=O)c3cccc(NC(=O)C(C)C)c3)cc2)cc1 | 0 | -17 | i | -8 | 37 | -9 | -9 | x
c1ccc(-c2cc3c(N4CCCC4)ncnc3s2)cc1 | 4 | -9 | i | x | 15 | 4 | 2 | -6
COCCCNC(=O)C[C@H]1C[C@H](C(=O)N2CCCCC2)[C@@]2(C)c3[nH]c4ccc(Cl)cc4c3CCN2C1=O | -1 | 0 | x | 58 | x | x | x | -12
O=C(OCCOc1cccc(Cl)c1)c1cc(S(=O)(=O)N2CCOCC2)ccc1F | -2 | -1 | i | -8 | -7 | x | x | -1
COc1ccc([N+](=O)[O-])cc1-c1[nH]c(-c2ccc(C(=O)O)cc2)nc1-c1ccccc1 | 2 | -3 | i | -9 | -11 | 4 | 2 | 11
O=C(O)c1ccccc1C(=O)Nc1cc(C(F)(F)F)ccc1N1CCCC1 | 3 | 1 | i | -5 | x | 1 | -13 | -9
COc1ccc(S(=O)(=O)N(C)c2ccc(C(=O)Nc3cccnc3)cc2)cc1 | -4 | -4 | i | 6 | -7 | -20 | 2 | -3
CCCNC(=O)Cn1nc([N+](=O)[O-])c([N+](=O)[O-])c1C | -1 | 2 | i | -14 | -8 | -4 | -4 | 30
CCn1c(=O)c(C(=O)Nc2ncccc2C)c(O)c2ccccc21 | 2 | -3 | i | x | x | -11 | -13 | 10
CC(C)(O)C(=O)NN(C(=O)c1ccccc1)c1ccc2ccccc2c1 | 3 | 4 | i | 1 | 6 | 0 | -10 | x
Fc1ccccc1COc1ccc(C(=S)N2CCCC2)cc1 | -4 | -13 | i | -12 | 6 | 8 | -11 | -14
COCCNC(=O)C1(C)CCCN(C(=O)c2ccc(C(F)(F)F)cc2)C1 (stereo not drawn) | 2 | 6 | x | -4 | x | x | x | 12
CC(=O)NNC(=O)c1nc(-c2ccccc2)c(C)o1 | 3 | 6 | i | x | 5 | -10 | 8 | 1
N/C(CSc1ccc(Cl)cc1)=N\NC(=O)c1ccncc1 | -3 | -2 | i | x | -4 | -10 | 3 | 9
C[C@@]12C(=O)Nc3ccc(Cl)cc3C(=O)N1[C@H]1c3cc(Br)ccc3OC[C@@H]1[C@@H]2c1ccccc1 | -21 | -13 | x | -16 | 29 | x | x | 45
Nc1cc(=O)[nH]c(SCc2ccc(Cl)cc2)n1 | 4 | 5 | i | -3 | 3 | -10 | -5 | -52
O=[N+]([O-])c1cccc(CSc2nnc(Cc3ccccc3)n2-c2ccc(F)cc2)c1 | -2 | 2 | i | x | -18 | 5 | -13 | 26
COCCN(C(=O)COC(=O)Cc1cccc(OC)c1)c1c(N)n(CC(C)C)c(=O)[nH]c1=O | 2 | 4 | i | x | x | x | x | 3
N=c1sccn1CC(=O)Nc1cc(S(=O)(=O)N2CCCC2)ccc1Cl | -4 | -3 | i | -12 | -1 | 4 | -7 | 2
Cc1cc(C)nc(SC2CCCCC2O)n1 (stereo not drawn) | -6 | -2 | i | -10 | 3 | -2 | 2 | -27
CCOC(=O)c1[nH]c2cc3c(cc2c1NC(=O)CN1CCC(C)CC1)OCO3 | -4 | -2 | i | -6 | x | -7 | -2 | -21
CCN(CC)S(=O)(=O)c1ccc(Cl)c(NC(=O)COC(=O)C2CCCCC2)c1 | 4 | 3 | x | -8 | -22 | x | x | x
CC1CC(C)CN(S(=O)(=O)c2ccc3c(c2)CCN3C(=O)CCC(=O)O)C1 (stereo not drawn) | -4 | 2 | i | -20 | -8 | -10 | 8 | x
COc1ccc(CNc2nc(SCc3cc(=O)n4cc(Cl)ccc4n3)nc3ccccc23)cc1 | -12 | -8 | i | 22 | 17 | -1 | 2 | x
O=C(COc1ccc2c(c1)OCO2)NCc1cccs1 | 3 | 5 | x | -19 | -21 | x | x | -61
O=C(COC(=O)COc1ccccc1)Nc1ccccc1OC(F)F | 1 | 5 | i | -13 | 2 | 15 | 74 | x | eIF4H FP inh retest=2;PABP polyA inh retest=4
O=C(O)CCC(=O)N1CCc2c([nH]c3ccccc23)C1C(F)(F)F (stereo not drawn) | 1 | 2 | i | -15 | x | -3 | 0 | -1
Cc1cccc(CCNC(=O)CCc2nnc(CCc3ccccc3)o2)n1 | -1 | -1 | x | x | -2 | -5 | -2 | 9
CC(=O)Nc1sc2c(c1C#N)CCCCC2 | 1 | 6 | i | -9 | -1 | -3 | 8 | -40
Cc1ccc(OCCNC(=O)/C=C/c2ccc([N+](=O)[O-])cc2)cc1C | 3 | 7 | i | -7 | -10 | -6 | -1 | -71
Clc1c(CSc2nc3ccccc3o2)nc2sccn12 | 15 | -3 | i | -37 | -3 | -2 | -1 | x
CN(C)c1ccc(/C=C(/NC(=O)c2ccccc2)C(=O)NCCN2CCOCC2)cc1 | -3 | 2 | i | -10 | -7 | 44 | -20 | 1
COc1ccc(CNC(=O)CCCn2nc(C)n3c(cc4sccc43)c2=O)cc1 | 3 | 7 | i | -26 | -11 | -9 | -8 | -1
CSc1nc(Cc2ccc(Cl)cc2)nc2ccccc12 | -6 | -2 | i | -18 | 23 | -6 | -9 | -49

Quoted at random: 2 entries already listed, in no set order.
SMILES | MT1-MMP act inh | MT1-MMP act inh RFP | Rce1 inhib | UUG fidelity | CSC inhib | eIF4H FP inh | PABP polyA inh | Env fusion inh | others
COc1ccc(CNc2nc(SCc3cc(=O)n4cc(Cl)ccc4n3)nc3ccccc23)cc1 | -12 | -8 | i | 22 | 17 | -1 | 2 | x
CSc1nc(Cc2ccc(Cl)cc2)nc2ccccc12 | -6 | -2 | i | -18 | 23 | -6 | -9 | -49

(listing goes on)
SMILES | MT1-MMP act inh | MT1-MMP act inh RFP | Rce1 inhib | UUG fidelity | CSC inhib | eIF4H FP inh | PABP polyA inh | Env fusion inh | others
COc1ccccc1/C=C/C(=O)OCCCN(C)C | 0 | 5 | i | x | -6 | -4 | 9 | 28
Cc1nc(NC(=O)COc2ccccc2)sc1C(=O)Nc1cccc(Cl)c1 | -1 | 3 | i | -12 | 2 | 0 | 10 | -93
NC(=O)CCC(NC(=S)Nc1ccccc1)C(=O)O (stereo not drawn) | -6 | 2 | i | x | -9 | -5 | 0 | 6
O=C(CN1C(=O)NC(c2ccccc2)(c2ccccc2)C1=O)NCc1ccc(F)cc1 | 2 | 2 | x | 3 | -3 | x | x | x
Cc1ccc(/C=N/NC(=O)Cc2ccc(O)cc2)s1 | -3 | -3 | i | -16 | 2 | -7 | -3 | -6
COc1cc(/C=N/NC(N)=O)cc(Br)c1OCc1ccc(C)cc1 | -4 | -1 | i | -19 | -4 | -5 | -5 | -36
COc1ccc(Cc2cnc(N)s2)cc1 | 2 | -4 | x | x | 1 | 4 | 0 | -9
COc1cccc(C(=O)NC(=S)Nc2nnn(C)n2)c1 | -2 | -3 | i | x | 0 | -8 | -3 | x
Cc1ccccc1OCC(=O)Nc1nnc(COc2ccccc2)s1 | 0 | 3 | i | -9 | -8 | 2 | 12 | -96
CCCNC(=O)c1ccc(COc2ccc(Cl)cc2)o1 | 1 | -2 | i | -14 | -2 | -7 | 4 | 10
COc1ccccc1Nc1nc(C)cs1 | 2&-1 | 6&1 | i | -15&-11 | -18&-9 | -12&-2 | -8&8 | -148
COc1cc(OC)c(OC)cc1/C=N/Nc1ccc(Cl)nn1 | -5 | -3 | i | -19 | -7 | -6 | -3 | -11
Cc1ccc(-c2csc3ncnc(Nc4ccc(N5CCOCC5)cc4)c23)cc1 | -20 | -16 | i | -6 | 40 | 4 | 5 | u
COc1ccc(OCc2nnc(SC(C)C(=O)Nc3nccs3)n2-c2ccccc2)cc1 (stereo not drawn) | -3 | -6 | i | 0 | 8 | -11 | -1 | 49
Cc1ccc(/C=N/N=C2/NC(=O)C(CC(=O)N3CCOCC3)S2)cc1 (stereo not drawn) | -2 | -1 | i | x | -8 | 3 | 5 | 4
CCCc1nnc(NC(=O)C2CCCO2)s1 (stereo not drawn) | -2 | 1 | x | -16 | -10 | 1 | -8 | -19
CCc1nn(CC(=O)N2CCN(C)CC2)c(=O)c2cccn12 | 1 | 4 | i | -7 | 3 | -7 | 3 | x
Cc1ccc(Nc2nc(N)nc(CSc3nccn3C)n2)cc1 | 2 | 4 | i | -34 | 13 | -2 | -11 | x
O=C(/C=C/c1ccc(Cl)c([N+](=O)[O-])c1)Nc1cccnc1 | 2 | -4 | i | -17 | -11 | -7 | -4 | -37
COc1cc(/C=N/NC(=O)C(N)=O)ccc1OCC(=O)N1C(C)CCCC1C (stereo not drawn) | 2 | 5 | i | x | -7 | 41 | -2 | -21
N#CC1=C(N)N=C(SCc2cccc3ccccc23)C(C(N)=O)C12CCCCC2 (stereo not drawn) | 7 | -20 | i | -9 | -3 | -8 | 3 | -25
CC1CN(CCOc2ccccc2[N+](=O)[O-])CC(C)O1 (stereo not drawn) | 2 | 3 | i | -19 | -10 | 4 | 1 | -2
COc1ccc(/C=C/C(=O)C2CC2)cc1Cn1nc(C)c([N+](=O)[O-])c1C | -8 | -14 | i | -14 | 2 | -10 | -4 | 21
O=C(CSCc1cccc(Br)c1)N=Nc1c(O)[nH]c2ccccc12 | 4 | 9 | i | x | -8 | -2 | 13 | 1
O=C(CCN1CCOCC1)N1CCc2c([nH]c3ccccc23)C1c1cccc(Cl)c1 (stereo not drawn) | 4 | 3 | i | x | -4 | 3 | -6 | -2
Cn1c(CNC(=O)c2cccs2)nnc1SCC(=O)Nc1ccccc1 | 1 | 2 | i | x | -2 | 6 | -4 | x
Cc1ccc(Cn2ccc(NC(=O)c3nn(C)cc3[N+](=O)[O-])n2)cc1 | -9 | -14 | i | -18 | x | -4 | -4 | x
CC(=O)Nc1ccc(C(=O)NNC(=O)c2ccccc2-n2cccc2)cc1 | -2 | 3 | x | -17 | 8 | x | x | 8
Cc1oc(-c2ccc(Cl)cc2)nc1CN1CCCN(C(=O)c2ccco2)CC1 | -1 | -7 | i | -6 | -10 | -13 | -3 | x
Cn1c(=O)oc2cc(S(=O)(=O)NCCC(=O)N3CCN(c4ccccc4)CC3)ccc21 | 1 | 0 | i | -6 | 7 | -4 | -1 | 9

Compound activity: PubChem BioAssay, several laboratories
